PKD1 kinase inh = PKD1 (human) kinase inhibition | Q15139 | PKD1 kinase fluorescence polarization assay | hit rate 0.056% among 200,000 | inhibition, %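 (about 10 µM by stock and volumes)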;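 active = inhibition of 50% or more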;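 note: controls were vehicle for no effect and a reference inhibitor for full effect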
Target sequence (Q15139 whole entry, looked up): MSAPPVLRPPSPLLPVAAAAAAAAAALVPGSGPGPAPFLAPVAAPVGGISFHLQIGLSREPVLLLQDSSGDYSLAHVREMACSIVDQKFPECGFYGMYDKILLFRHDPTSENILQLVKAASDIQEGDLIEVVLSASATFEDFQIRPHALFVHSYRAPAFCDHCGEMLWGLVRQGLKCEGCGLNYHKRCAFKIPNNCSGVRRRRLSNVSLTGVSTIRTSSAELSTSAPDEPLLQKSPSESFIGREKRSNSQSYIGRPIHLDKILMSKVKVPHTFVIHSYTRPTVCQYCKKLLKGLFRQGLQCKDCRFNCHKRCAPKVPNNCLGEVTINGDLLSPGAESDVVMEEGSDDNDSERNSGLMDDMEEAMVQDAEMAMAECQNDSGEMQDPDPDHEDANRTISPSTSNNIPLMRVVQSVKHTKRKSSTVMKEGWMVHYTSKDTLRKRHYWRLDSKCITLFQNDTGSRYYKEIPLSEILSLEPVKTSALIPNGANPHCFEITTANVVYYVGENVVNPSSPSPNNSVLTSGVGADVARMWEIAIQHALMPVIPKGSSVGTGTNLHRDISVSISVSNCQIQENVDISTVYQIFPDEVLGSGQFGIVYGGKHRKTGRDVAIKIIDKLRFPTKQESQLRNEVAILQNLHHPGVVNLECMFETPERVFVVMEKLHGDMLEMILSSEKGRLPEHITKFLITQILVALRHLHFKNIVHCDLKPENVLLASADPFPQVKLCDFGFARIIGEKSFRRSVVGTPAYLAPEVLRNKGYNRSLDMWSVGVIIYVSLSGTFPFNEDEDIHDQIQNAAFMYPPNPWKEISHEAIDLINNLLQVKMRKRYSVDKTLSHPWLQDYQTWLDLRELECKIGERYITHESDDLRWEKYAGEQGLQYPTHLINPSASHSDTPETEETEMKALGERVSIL
Insulin prom inh = TRM-6 insulin promoter activity inhibition. TRM-6 cells (human fetal islet line), insulin promoter-eGFP reporter, imaging; reporter expression induced with tamoxifen. inhibition, % at 2 µM. hit rate 0.9% among 130,000. AID 1273;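 active = inhibition above the mean plus 3 SD, with well images judged a real hit on visual review, cut at about 60% in these data, passing the limit was not always enough; inconclusive = inhibition over the cutoff but images rejected on review; inactive = inhibition not above the cutoff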
RGS16-Gao HTS = modulates binding between human RGS16 and Galphao. bead-based flow cytometry RGS16-Galphao binding, fluorescence; actives lie on both sides. binding response (% of control), % at 10 µM. hit rate 0.38% among 220,000;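 active = below 25% or above 175%, edge rows of some plates excepted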;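 note: Galphao activated by GDP with aluminum fluoride before binding; 100% = wells without compound and 0% = beads without RGS; some results beyond the cut were filed as inactive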
HSV augment = HSV replication enhancement. hit rate 0.005% among 220,000. HSV replication augmentation in cells, fold increase. maximum fold increase;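 active = peak rise of 1.5-fold or more in the series; inconclusive = self-fluorescent or not available for retest; tested in PC3 cells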;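 note: first round at 10 µM; read as green reporter fluorescence; hits show the peak of a series up to 25 µM; 1 = signal of infected wells without compound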
GALR2 ag = GALR2 (human) receptor agonism; O43603; GALR2-expressing cells, agonist activation read-out; activation, %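 (tested at 5 µM)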; hit rate 0.48% among 140,000;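 active = above mean plus 3 SD of all compounds, about 5% in these data, not always enough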;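 note: 0% = vehicle buffer wells and 100% = reference agonist at full effect; tested in CHO reporter cells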
Insulin prom inh cell count = also measured in Insulin prom inh; calls as there; normalized cell count, %; measured here: cell count, toxicity; reference of the scale not given here;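 cells exposed to compound for 48 h; stained nuclei by imaging scaled within each plate; lower means fewer cells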
HSV augment primary fold = recorded beside HSV augment, whose call it bears; fold increase; compound at 10 µM; measured here: primary screen fold increase 10 uM; tested in PC3 cells;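 GFP signal in the first replicate; 1 = infected wells without compound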
* = called active by the depositor; i = inactive; ? = inconclusive; . = no result given.

SMILES	PKD1 kinase inh	Insulin prom inh	Insulin prom inh cell count	RGS16-Gao HTS	HSV augment	HSV augment primary fold	GALR2 ag
CC12CC3(C)CC(C)(C1)CC(C(=O)NC(=S)N1CCOCC1)(C2)C3	-12	-50	111	112	i	0.98	-0.4
O=C(NNC(=S)NCc1ccccc1)c1ccccc1OC(F)F	0	.	.	108	i	0.95	-0.3
Cc1ccc(NC(=O)N2CCc3ccccc3C2)cc1	-6	13	56	107	i	0.95	-0.7
COc1ccc(N(C(=O)c2ccccc2)S(=O)(=O)c2cccs2)cc1	-2	9	118	102	i	1	.
c1ccc2c(c1)[nH]c1nc3nncn3nc12	14	27	116	98	i	0.8	-0.9
Cc1cc(C(=O)CSc2nnc(Nc3ccccc3)s2)c(C)n1CC1CCCO1 (stereo unspecified)	-7	.	.	95	i	0.88	-1.3
COc1cc([N+](=O)[O-])cc(/C=N/NC(=O)C(C)Nc2cccc3ccccc23)c1O (stereo unspecified)	5	.	.	98	i	0.92	-1.4
Cc1ccc2nc(NC(=O)C3CCCN(S(=O)(=O)c4cccnc4)C3)sc2c1 (stereo unspecified)	-10	.	.	110	i	0.94	0.5
Cc1ccc(CSCC(=O)N2CCOCC2)cc1	2	-17	90	104	i	0.83	0.1
Oc1ccccc1C1=NCCNC(C(F)(F)F)=C1	-3	-16	83	109	i	1	.
Cc1cccc(-n2ncc3c(N4CCOCC4)ncnc32)c1	-12	-2	109	9	i	0.86	-1.6
CC(C)OC(=O)CSc1nc(-c2ccc(F)cc2)cc(C(F)(F)F)n1	-4	44	100	99	i	1.1	-1.9
COc1cc(OC)c(NC(=O)c2ccccc2F)cc1Cl	-8	15	100	101	i	0.96	.
O=C(/C=C/c1ccccc1)OCCCN=C1NS(=O)(=O)c2ccccc21	5	42	77	99	i	0.78	.
COc1cccc(OCC(=O)Nc2ccc(OC)c(OC)c2)c1	1	0	98	93	i	0.92	-1.9
C/C(=N\NC(=S)NC(C)C)c1ccc(Cl)s1	-8	.	.	108	i	1.1	-0.8
CN(Cc1ccccc1)C(=O)CSc1cc(=O)n(C)c2ccccc12	-2	40	88	103	i	0.87	.
COCCn1c(=S)[nH]c2cc(C(=O)N3CCN(c4ccc(F)cc4)CC3)ccc2c1=O	-2	-100	135	100	i	1.1	-0.2
COc1cc(NS(=O)(=O)c2ccc(NC(=O)/C=C/c3cccc([N+](=O)[O-])c3)cc2)ncn1	6	33	72	104	i	1	.
N#C/C(=C(\O)C(F)(F)F)c1nnc2n1CCCCC2	-1	.	.	101	i	0.96	.
NC(=O)CSc1nnc2sc3ccccc3n12	-14	.	.	102	i	1	1.0
CC12CCC(C(=O)N3CCc4ccccc43)(CC1=O)C2(C)C (stereo unspecified)	-5	i	106	103	i	0.94	-1.8
CCOc1ccc(NC(=O)C(=O)NCc2ccncc2)cc1	-5	48	125	96	i	0.96	.
COc1ccccc1NC(=O)CSc1nnc(Cc2cccn2C)n1-c1ccc(F)cc1	-2	.	.	100	i	0.89	-2.3
O=C(Nc1cccc(F)c1)Nc1ccc2c(c1)C(=O)OC2	.	.	.	109	i	1.2	.

A different layout for some results above:
Compound,PKD1 kinase inh,Insulin prom inh,Insulin prom inh cell count,RGS16-Gao HTS,HSV augment,HSV augment primary fold,GALR2 ag
Cc1cccc(-n2ncc3c(N4CCOCC4)ncnc32)c1,-12,-2,109,9,i,0.86,-1.6
CC(C)OC(=O)CSc1nc(-c2ccc(F)cc2)cc(C(F)(F)F)n1,-4,44,100,99,i,1.1,-1.9

Continued.
SMILES	PKD1 kinase inh	Insulin prom inh	Insulin prom inh cell count	RGS16-Gao HTS	HSV augment	HSV augment primary fold	GALR2 ag
COc1cccc(-n2c(=S)[nH]c3c(oc4ccccc43)c2=O)c1	-2	.	.	103	i	0.97	.
O=C(N/N=C/c1cc([N+](=O)[O-])c(N2CCOCC2)cc1N1CCOCC1)c1cccnc1	2	69*	120*	108	i	0.93	.
COc1cccc(/C=C(/C(=O)OCC(=O)NCC2CCCO2)c2ccccc2)c1 (stereo unspecified)	-2	.	.	100	i	1	.
O=C1CCC(c2ccccc2)(c2ccccc2)CC1	.	.	.	104	i	1	.
O=C(Oc1ccccc1)c1cccc2cccc(C(=O)Oc3ccccc3)c12	.	.	.	93	i	1.1	.
CC(=O)Nc1cccc(N=NN2CCOCC2)c1	-7	-36	99	113	i	0.98	.
COc1ccc(/C=C(\NC(=O)c2ccccc2)C(=O)OCC2CCCN3CCCCC23)cc1OC (stereo unspecified)	-6	-56	85	190	i	1.1	.
COc1ccc(N(Cc2cc3cc(OC)ccc3[nH]c2=O)C(=O)C2CCCO2)cc1 (stereo unspecified)	7	-112	55	63	i	1	1.7
Cc1ccc(-c2nn(CC(=O)Nc3ccc4c(c3)nc3n4CCOC3)c(=O)c3ccccc23)cc1	9	.	.	99	i	0.97	-0.7
CNC(=S)N/N=C(\C)c1ccc2c(c1)OCO2	6	.	.	97	i	1.1	.
Cn1c(CNC(=O)c2ccco2)nnc1SCC(=O)Nc1cccc(Br)c1	-5	62	84	126	i	0.76	-1.2
COc1ccc(C2=NN(C(=O)CN3CCOCC3)C(c3nc4ccccc4[nH]3)C2)cc1 (stereo unspecified)	-7	.	.	98	i	1	.
CC(=O)c1ccc(NC(=S)NCCc2ccccn2)cc1	-5	32	115	84	i	0.98	-1.6
Cc1cccc2sc(N(CCCN(C)C)C(=O)c3ccco3)nc12	-6	6	126	103	i	0.97	.
CC(Nc1cccc2ccccc12)C(=O)N/N=C/c1ccc([N+](=O)[O-])cc1 (stereo unspecified)	-3	32	93	105	i	0.97	1.3
COc1cc(NC(=O)CC2NCCNC2=O)cc(OC)c1 (stereo unspecified)	2	14	142	98	i	0.91	-0.5
C=CCOc1ccc(CNc2ccc3[nH]c(=O)[nH]c3c2)cc1OCC	2	38	67	122	i	1.1	.
CC(C)CC(NC(=O)c1cccc(Cl)c1)C(=O)O (stereo unspecified)	0	.	.	94	i	1.1	.
O=C(O)c1ccccc1SC1CC(=O)N(c2ccccc2)C1=O (stereo unspecified)	5	-3	64	100	i	1	-0.3
CCn1c(=N)n(CC(O)c2cccs2)c2ccccc21 (stereo unspecified)	1	-79	116	111	i	0.9	.
COCC(=O)NCc1nc2ccccc2n1Cc1ccccc1F	-6	-54	52	101	i	0.83	-1.9
CCOc1ccc(/C=C/C(=O)Nc2ccccc2C(F)(F)F)cc1	0	28	105	103	i	0.94	0.0
Cc1cc(C)nc(-n2ncc3c2CC(c2cccc(Cl)c2)CC3=O)n1 (stereo unspecified)	-2	-50	207	103	i	0.76	.
N#Cc1c(-n2cccc2/C=N/O)sc2c1CCCC2	-11	71*	127*	103	i	0.98	-1.2
COc1ccc(N2CCN(c3cc(C)c4ccc(C)cc4n3)CC2)cc1	0	7	155	103	i	0.99	.

A draw from above in order of number of heavy atoms, lowest first.
SMILES	PKD1 kinase inh	Insulin prom inh	Insulin prom inh cell count	RGS16-Gao HTS	HSV augment	HSV augment primary fold	GALR2 ag
O=C(Oc1ccccc1)c1cccc2cccc(C(=O)Oc3ccccc3)c12	.	.	.	93	i	1.1	.
COc1cccc(/C=C(/C(=O)OCC(=O)NCC2CCCO2)c2ccccc2)c1 (stereo unspecified)	-2	.	.	100	i	1	.
Cc1ccc(-c2nn(CC(=O)Nc3ccc4c(c3)nc3n4CCOC3)c(=O)c3ccccc23)cc1	9	.	.	99	i	0.97	-0.7

(listing goes on)
SMILES	PKD1 kinase inh	Insulin prom inh	Insulin prom inh cell count	RGS16-Gao HTS	HSV augment	HSV augment primary fold	GALR2 ag
COc1ccc(CCN2C(=O)CN=C2Nc2ccc(F)cc2)cc1OC	-8	.	.	98	i	0.92	.
CCCn1nc2ccccc2c1P(=N)(N1CCOCC1)N1CCOCC1	-4	-10	116	-105	i	0.81	-1.5
COc1ccc(CNC(=S)Nc2cc(C)cc(C)c2)cc1	-4	-16	102	107	?	.	-0.5
CC(OC(=O)c1ccc2c(=O)n3c(nc2c1)CCCCC3)C(N)=O (stereo unspecified)	-7	.	.	105	i	1	.
NC(=O)c1ccc(NC(=O)CCCc2nc(-c3ccccc3Cl)no2)cc1	-2	17	96	103	i	0.91	-1.3
CCCCNc1nc(N(C)c2ccccc2)nc(-n2ccnc2)n1	-3	.	.	108	i	1	0.9
O=c1oc2ccc3ccccc3c2cc1-c1nnc(-c2cccs2)o1	8	19	123	101	i	1	-0.2
O=C(O)c1cccnc1Sc1ccccc1	-2	-35	113	107	i	1.1	-0.9
Cc1ccc(C(C[N+](=O)[O-])Sc2ccc(N)cc2)cc1 (stereo unspecified)	.	.	.	86	i	0.66	.
O=C(CSc1ccc(Cl)cc1)N1CCCC1	-6	.	.	100	i	0.94	.
CC(C)=NNc1nc2c(c(=O)n(C)c(=O)n2C)n1C	.	.	.	93	i	1	.
CC(=O)c1ccc(OCC(=O)c2ccc(-c3ccccc3)cc2)cc1	-7	11	124	52	i	0.96	-0.9
COC(=O)c1cc(OC)c(OC)c(OC)c1[N+](=O)[O-]	.	.	.	98	i	0.96	.
O=C(O)COc1ccc(/C=N/NC(=O)c2ccc(-c3csc(Nc4ccc(Cl)cc4)n3)cc2)cc1	.	.	.	100	i	0.76	.
COc1cc(OC)c(-c2noc(C(=O)OC(C)(C)C)c2C(=O)OC(C)(C)C)c(OC)c1	-17	.	.	103	i	1	-0.8
COc1ccc([N+](=O)[O-])cc1NC(=S)NC(=O)C(C)(C)C	-4	.	.	105	i	0.93	.
COc1nc(-c2ccccc2)cc(-c2ccc3c(c2)OCO3)c1C#N	.	.	.	98	i	0.86	.
CCOC(=O)c1c(NC(=O)COC(=O)Cn2c(C(F)(F)F)nc3ccccc32)sc(C)c1C	3	23	125	100	i	0.93	-3.5
CCOC(=O)c1c(C)nc2sc(C(N)=O)c(N)c2c1-c1ccccc1	-6	16	180	107	i	0.91	-0.8
COc1cccc(-n2c(SC3CCOC3=O)nc3ccccc3c2=O)c1 (stereo unspecified)	-13	5	113	105	i	1.1	-0.1
CC(=O)Nc1ccc(S(=O)(=O)NC(CC(=O)N(C)Cc2ccccc2)C(C)C)cc1 (stereo unspecified)	2	.	.	107	i	1.1	-1.8
CCOc1ccc(NCc2ccccc2OCc2cccc(F)c2)cc1	-4	-9	144	103	i	0.72	-1.6
O=C(NCc1ccc2c(c1)OCO2)c1ccc2c(c1)OCO2	.	.	.	105	i	1	.
Clc1cccc(N=NN2CCOCC2)c1Cl	.	.	.	98	i	0.95	.
Cc1ccc(Nc2nnc(SCn3nnc4ccccc4c3=O)s2)cc1	0	-10	146	107	i	0.95	-2.3
Next entries
SMILES	PKD1 kinase inh	Insulin prom inh	Insulin prom inh cell count	RGS16-Gao HTS	HSV augment	HSV augment primary fold	GALR2 ag
CCOC(=O)Cn1c(=O)c2c(nc(N3CCCCC3)n2Cc2ccccc2)n(C)c1=O	0	.	.	99	i	0.91	-1.4
Cc1ccccc1CSc1nnc2ccc(-c3ccncc3)nn12	1	.	.	100	i	1.1	.
COc1cc(C=O)ccc1Oc1cnccn1	-6	-7	159	103	i	1	.
Cc1ccc(C)c(NS(=O)(=O)c2cc(C(=O)N3CCc4ccccc4C3)ccc2Cl)c1	10	.	.	101	i	0.71	-1.6
COc1ccc(C(C)=O)cc1COC(=O)c1cnc(Cl)c(Cl)c1	-4	.	.	101	i	0.98	.
CCOP(=O)(OCC)C(NC(=O)Nc1ccc(Cl)cc1)C(=O)N(CC)CC (stereo unspecified)	1	-25	113	100	i	0.92	-1.0
Cc1cc2c(c(SCC#N)n1)C(=O)OC2	9	-4	75	81	i	0.97	.
CC(Cc1cccs1)NC(=O)Nc1ccc(F)cc1 (stereo unspecified)	4	-37	135	94	.	.	-3.3
Nc1cc(S(=O)(=O)N2CCCCC2)ccc1N1CCOCC1	-3	40	81	107	i	0.98	.
Cn1cnnc1SCC(=O)c1ccc(O)c(O)c1	-10	-39	99	98	i	1	.
CCOC(=O)c1c(NC(=O)COC(=O)c2ccc(O)cc2)sc(C(=O)N(C)C)c1C	-1	.	.	97	i	0.86	.
O=C(NC(Cc1ccccc1)c1nc2ccccc2[nH]1)c1ccc(Cl)c([N+](=O)[O-])c1 (stereo unspecified)	1	.	.	104	i	0.67	0.1
CCC(C)C(NC=C1C(=O)OC(C)(C)OC1=O)C(=O)O (stereo unspecified)	3	-19	121	103	i	1.2	-0.6
Cc1cc(C)c(OCCCCN(C)C)c(Br)c1	-2	-9	70	102	i	0.99	.
CCCCOc1ccc(OC(=O)c2cccnc2)cc1	1	0	103	105	i	0.67	-1.2
O=C(NCc1ccc(F)cc1)C(Cc1ccccc1)NS(=O)(=O)c1cccs1 (stereo unspecified)	0	0	130	94	i	1.1	-0.6
